Compound activity from PubChem BioAssay.
Vaccinia stage: Vaccinia orthopox stage-specific inhibition | Vaccinia-infected cells, mCherry/Venus stage reporter fluorescence; hits give low values; some inactives read as strong as hits | activity change (mCherry), % (concentration not given with the values) | 89,000 tested, 0.01% active;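 active = mCherry past -33% and 40 or more points under the early reporter, replicates agreeing; inconclusive = past -33% without that gap or agreement; tested in A549 cells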;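 also: scaled between vehicle wells and reference inhibitor wells; 23 nL library stock went into each well; one replicate is shown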
Vaccinia stage Venus: recorded beside Vaccinia stage, whose call it bears; activity change (Venus), %; measured here: Venus reporter, other viral stage;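 negative = less Venus signal; first of two replicates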
Active calls of the source: *; u = inconclusive; x = not tested or not shown. Some of the compounds tested (hit frequency here may not be typical).

SMILES	Vaccinia stage	Vaccinia stage Venus
C[C@@H]1CN([C@@H](C)CO)C(=O)c2cc(NC(=O)c3ccncc3)ccc2O[C@H]1CN(C)Cc1ccc2c(c1)OCO2	13.0	8.3
COc1ccc(-c2ccc3c(c2)O[C@H](CN(C)C)[C@@H](C)CN([C@H](C)CO)S3(=O)=O)cc1	1.2	-3.8
COc1ccccc1NC(=O)N1CC(=O)N2[C@@H](CO)[C@@H](c3ccc(C#Cc4ccccc4)cc3)[C@@H]2C1	-17.0	-8.2
CC=Cc1ccc2n(c1=O)C[C@H]1[C@H](CO)[C@@H](C(=O)NCc3ccncc3)N(Cc3cncnc3)[C@@H]21 (mixture of isomers)	18.8	12.5
Cc1ccc(S(=O)(=O)N(C)C[C@H]2Oc3ccc(NC(=O)Nc4c(C)noc4C)cc3C(=O)N([C@@H](C)CO)C[C@H]2C)cc1	17.4	11.8
C[C@@H]1CN([C@H](C)CO)C(=O)c2cc(C#CC3CC3)cnc2O[C@H]1CN(C)Cc1ccccn1	0.0	1.5
Cc1noc(C)c1S(=O)(=O)Nc1cccc2c1O[C@@H](CN(C)Cc1ccc(C(=O)O)cc1)[C@@H](C)CN([C@@H](C)CO)C2=O	10.2	6.3
COc1ccc(C#Cc2ccc([C@H]3[C@@H](CO)N4CCCCN(C)C[C@@H]34)cc2)cc1	-23.1	-13.9
COc1ccc(S(=O)(=O)N(C)C[C@H]2OCc3ccccc3-c3c(n(C)c4ccccc34)C(=O)N([C@H](C)CO)C[C@@H]2C)cc1	16.3	14.1
Cc1ccc(S(=O)(=O)N(C)C[C@@H]2Oc3ccc(NC(=O)CCN4CCOCC4)cc3C(=O)N([C@H](C)CO)C[C@H]2C)cc1	7.5	10.7
CCN(C[C@@H]1N[C@@H](CO)[C@@H]1c1ccc(C2=CCCC2)cc1)C(=O)c1cccnc1	u	x
C[C@@H]1CN([C@H](C)CO)S(=O)(=O)c2ccc(/C=C/c3ccccc3)cc2O[C@H]1CN(C)C(=O)c1ccccc1	u	x
CC(C)NC(=O)Nc1ccc2c(c1)C(=O)N([C@H](C)CO)C[C@@H](C)[C@H](CN(C)Cc1ccc(Oc3ccccc3)cc1)O2	-6.3	-7.1
COC(=O)[C@@H]1[C@@H](CO)[C@@H]2Cn3c(ccc(-c4ccccc4)c3=O)[C@H]1N2CC1CCCCC1	-11.4	-6.7
COc1ccc(CNC(=O)N(C)C[C@@H]2OCc3ccccc3-c3ccccc3C(=O)N([C@@H](C)CO)C[C@@H]2C)cc1	14.0	3.1
C[C@@H]1CCCCO[C@H](CN(C)S(=O)(=O)c2cccs2)[C@@H](C)CN([C@@H](C)CO)C(=O)c2cc(NS(=O)(=O)c3ccccc3)ccc2O1	-8.6	-3.8
COc1ccc(CN(C)C[C@@H]2Oc3ccc(NC(=O)Nc4ccc5c(c4)OCO5)cc3C(=O)N([C@H](C)CO)C[C@@H]2C)cc1	-2.2	0.5
COc1ccc(S(=O)(=O)Nc2ccc3c(c2)C(=O)N([C@H](C)CO)C[C@H](C)[C@H](CN(C)Cc2ccc(C(F)(F)F)cc2)OCCCC[C@@H](C)O3)cc1	-23.5	-17.2
Cc1ccc(-c2cnc3c(c2)C(=O)N([C@H](C)CO)C[C@H](C)[C@@H](CN(C)C(=O)Cc2ccccc2)O3)cc1	u	x
COc1ccccc1-c1cnc2c(c1)C(=O)N([C@H](C)CO)C[C@@H](C)[C@@H](CN(C)Cc1cncnc1)O2	11.3	1.0
Cc1noc(C)c1S(=O)(=O)N(C)C[C@@H]1OCCCC[C@H](C)Oc2ccc(NC(=O)Nc3ccccc3)cc2C(=O)N([C@H](C)CO)C[C@H]1C	-17.1	-6.6
CO[C@@H]1CN(C)C(=O)c2cc(NC(=O)C3CCC3)ccc2OC[C@H](C)N(C(=O)CN(C)C)C[C@@H]1C	1.7	-4.0
C[C@H]1CN([C@@H](C)CO)C(=O)c2cc(-c3cncnc3)cnc2O[C@@H]1CN(C)Cc1cncnc1	21.6	7.4
C[C@@H]1CN([C@H](C)CO)C(=O)c2cccc(NC(=O)Nc3cccc4ccccc34)c2O[C@@H]1CN(C)S(=O)(=O)c1ccc(F)cc1	-7.0	-1.6
CCCNC(=O)N1CC2(CCN(C(=O)C3CC3)CC2)c2c([nH]c3cc(OC)ccc23)[C@H]1CO	-0.6	-4.1
O=C(CCN1CCCCC1)NCC[C@@H]1CC[C@H](NC(=O)Nc2ccc(Cl)cc2)[C@H](CO)O1	-3.0	3.0
O=C(N[C@@H]1CC[C@@H](CCn2cc(-c3ccccc3)nn2)O[C@H]1CO)c1cnccn1	-6.8	0.8
COCC#Cc1ccc2c(c1)O[C@H](CN(C)C)[C@H](C)CN([C@@H](C)CO)S2(=O)=O	24.8	29.3
O=C(C[C@H]1CC[C@@H](NC(=O)CN2CCOCC2)[C@@H](CO)O1)NCCc1ccccc1	-0.8	-3.4
COc1ccc(S(=O)(=O)Nc2ccc3c(c2)C(=O)N([C@@H](C)CO)C[C@@H](C)[C@@H](CN(C)Cc2ccc4c(c2)OCO4)OCCCC[C@H](C)O3)cc1	-26.4	-13.2
CNC(=O)C[C@H]1CC[C@H]2[C@@H](COc3ccc(NC(=O)c4ccc(F)cc4)cc3C(=O)N2C)O1	-3.7	-1.5
CCC(=O)N(C)C[C@H]1[C@H](c2ccc(-c3ccccc3F)cc2)[C@@H](CO)N1C(C)=O	-28.3	-19.2
C[C@@H]1CCCCO[C@H](CN(C)S(C)(=O)=O)[C@H](C)CN([C@H](C)CO)C(=O)c2cc(N(C)C)ccc2O1	5.7	6.2
C[C@H](CO)N1C[C@H](C)[C@H](CN(C)C(=O)Nc2cccc(F)c2)Oc2cc(/C=C/c3ccccc3)ccc2S1(=O)=O	u	x
Cc1noc(C)c1NC(=O)N(C)C[C@@H]1OCCCC[C@H](C)Oc2ccc(NS(=O)(=O)c3ccc(F)cc3)cc2C(=O)N([C@H](C)CO)C[C@@H]1C	30.4	25.4
C[C@@H]1CN([C@H](C)CO)C(=O)Cc2cc(NC(=O)Nc3ccc4c(c3)OCO4)ccc2O[C@H]1CN(C)Cc1ccc(Cl)c(Cl)c1	-17.9	-6.1
N#C[C@@H]1[C@H](c2ccc(C#CC3CCCC3)cc2)[C@H](CO)N1C(=O)Nc1ccc(F)cc1	-22.3	-13.3
O=C(c1cccnc1)N1C[C@@H]2[C@H](c3ccccc31)[C@H](CO)N2CC1CCCC1	-6.6	-9.2
CN1CCN(C(=O)C[C@H]2C[C@H]3c4cc(NC(=O)CC5CC5)ccc4O[C@H]3[C@@H](CO)O2)CC1	-1.7	3.6
CCCN(C)C[C@H]1Oc2ncc(-c3ccccc3F)cc2C(=O)N([C@H](C)CO)C[C@H]1C	-15.6	-15.2
O=C(c1cccnc1)N1CC(=O)N2[C@@H](CO)[C@H](c3ccc(-c4ccc(F)cc4)cc3)[C@@H]2C1	4.1	1.2
O=C(C1=C[C@@H](c2ccccc2)C[C@@H](OCCCCO)O1)N1CCN(Cc2ccccc2)CC1	7.1	2.0
CCCN(C)C[C@@H]1Oc2ncc(C#CCC(C)C)cc2C(=O)N([C@H](C)CO)C[C@H]1C	-32.9	-21.7
COc1ccccc1NC(=O)N(C)C[C@@H]1Oc2cc(Br)ccc2S(=O)(=O)N([C@@H](C)CO)C[C@@H]1C	-24.9	-13.7
C[C@@H]1CN([C@@H](C)CO)S(=O)(=O)c2ccc(C#CC(C)(C)O)cc2O[C@@H]1CN(C)C(=O)CN(C)C	34.1	0.6
CCNC(=O)Nc1ccc2c(c1)C(=O)N(C)[C@H]1CC[C@H](CC(=O)N[C@@H](C)c3ccccc3)O[C@H]1CO2	12.3	12.3
CN1CCN(C(=O)c2cc3c(c(-c4cccc(C5=CCCC5)c4)n2)[C@H](CCO)N([S@@](=O)C(C)(C)C)C3)CC1	3.3	20.2
C[C@@H]1CN([C@@H](C)CO)C(=O)c2cc(NC(=O)CCCCCC(=O)Nc3ccccc3N)ccc2O[C@@H]1CN(C)CC1CCCCC1	u	x
O=C(Nc1ccc(Cl)c(Cl)c1)N[C@H]1CC[C@H](CCn2cc(C3CCCCC3)nn2)O[C@@H]1CO	-13.5	-5.1
O=C(NC1CCCC1)N1CC2(C1)[C@H](c1ccccc1)[C@H](CO)N2S(=O)(=O)Cc1ccccc1	31.9	12.7
C[C@@H]1CN([C@@H](C)CO)C(=O)Cc2cc(N(C)C)ccc2O[C@@H]1CN(C)Cc1ccc(Oc2ccccc2)cc1	u	x
COc1cccc(NC(=O)N(C)C[C@H]2Oc3cc(C#Cc4ccc(F)cc4)ccc3S(=O)(=O)N([C@H](C)CO)C[C@@H]2C)c1	u	x
CCCNC(=O)C[C@H]1C[C@@H]2c3cc(NC(=O)C4CCC4)ccc3O[C@@H]2[C@H](CO)O1	16.8	4.7
COc1ccccc1NC(=O)N1CCCCN2[C@@H](CO)[C@H](c3ccc(-c4ccccc4)cc3)[C@@H]2C1	u	x
C[C@H](CO)N1C[C@H](C)[C@H](CN(C)C(=O)C2CCC2)Oc2ncc(-c3cccc(C#N)c3)cc2C1=O	24.6	7.2
CCC(=O)N1CC2(CN(Cc3ccncc3)C2)c2c(n(C)c3cc(OC)ccc23)[C@@H]1CO	8.9	-0.1
Cc1noc(C)c1S(=O)(=O)Nc1ccc2c(c1)C(=O)N([C@H](C)CO)C[C@@H](C)[C@@H](CN(C)C(=O)Nc1ccc(C(F)(F)F)cc1)OCCCC[C@@H](C)O2	-29.9	-19.7
COc1ccccc1CN1CC[C@@H]2[C@@H](CO)Nc3ccc(C#Cc4ccccc4)cc3[C@@H]21	u	x
COc1ccc(NC(=O)Nc2ccc3c(c2)CC(=O)N([C@H](C)CO)C[C@@H](C)[C@@H](CN(C)Cc2ccc(-c4ccccc4)cc2)O3)cc1	-34.4	-25.4
C[C@H]1CCCCO[C@H](CN(C)C(=O)Nc2ccc(F)cc2)[C@@H](C)CN([C@@H](C)CO)C(=O)c2cc(NC(=O)c3ccccc3)ccc2O1	u	x

Compound profiles, from the list above:
C[C@H](CO)N1C[C@H](C)[C@H](CN(C)C(=O)C2CCC2)Oc2ncc(-c3cccc(C#N)c3)cc2C1=O across the screens: Vaccinia stage = 24.6; Vaccinia stage Venus = 7.2
CCC(=O)N1CC2(CN(Cc3ccncc3)C2)c2c(n(C)c3cc(OC)ccc23)[C@@H]1CO across the screens: Vaccinia stage = 8.9; Vaccinia stage Venus = -0.1

Continuation.
SMILES	Vaccinia stage	Vaccinia stage Venus
COc1ccc(NC(=O)Nc2ccc3c(c2)CC(=O)N([C@@H](C)CO)C[C@@H](C)[C@@H](CN(C)C(=O)Nc2ccc(OC)cc2)O3)cc1	-3.7	2.7
O=C(C[C@@H]1CC[C@H]2[C@@H](COC[C@@H](O)CN2S(=O)(=O)c2ccc(Cl)cc2)O1)NCCN1CCCCC1	5.8	-2.1
Cc1nc2cc(Br)ccc2c(=O)n1Cc1cccc(O)c1	2.0	-4.8
O=C(C[C@H]1C=C[C@H](NC(=O)Nc2cc(F)ccc2F)[C@@H](CO)O1)Nc1ccc(-c2ccccc2)cc1	-1.3	-3.5
C[C@H](CO)N1C[C@H](C)[C@@H](CN(C)S(C)(=O)=O)Oc2ncc(-c3cccc(F)c3)cc2C1=O	12.6	1.1
O=C(C[C@H]1C=C[C@H](NC(=O)CC2CC2)[C@@H](CO)O1)NCc1ccc(Cl)cc1	9.9	19.4
CCCC#Cc1ccc([C@@H]2[C@@H](CO)N3C(=O)CN(C(=O)NC4CCCC4)C[C@H]23)cc1	-14.9	-18.4
O=C(C[C@@H]1C[C@H]2c3cc(NC(=O)C4CCC4)ccc3O[C@H]2[C@H](CO)O1)NCc1cccc(F)c1	-13.6	4.6
C[C@H]1CN([C@@H](C)CO)C(=O)Cc2cc(NC(=O)Nc3ccc(C(F)(F)F)cc3)ccc2O[C@@H]1CN(C)Cc1ccncc1	-3.4	-3.1
C[C@@H]1CN([C@@H](C)CO)C(=O)c2cc(NC(=O)Cc3ccccc3)ccc2O[C@@H](C)CCCCO[C@H]1CN(C)C(=O)CCC(F)(F)F	-21.0	-16.9
C[C@H](CO)N1C[C@H](C)[C@@H](CN(C)Cc2ccc(C(F)(F)F)cc2)Oc2ccc(NS(=O)(=O)c3ccccc3)cc2CC1=O	u	x
O=C(C[C@H]1C[C@H]2c3cc(NC(=O)c4cccnc4)ccc3O[C@H]2[C@@H](CO)O1)NCc1ccncc1	13.8	16.0
C[C@H](O)C#Cc1ccc([C@@H]2[C@@H](CO)N3CCCCN(C(=O)c4ccc(F)cc4)C[C@@H]23)cc1	-3.2	-3.0
C[C@H]1CN([C@@H](C)CO)C(=O)c2cc(NC(=O)Cn3cnnn3)ccc2O[C@@H]1CN(C)Cc1ccc(C(=O)Nc2ccccc2N)cc1	10.6	5.1
Cc1noc(C)c1NC(=O)Nc1ccc2c(c1)C(=O)N([C@H](C)CO)C[C@H](C)[C@@H](CN(C)S(=O)(=O)c1ccc(F)cc1)OCCCC[C@H](C)O2	24.3	15.3
COc1cccc(CN2[C@H](CO)[C@H]3c4ccccc4N(C(=O)CC(F)(F)F)C[C@H]32)c1	u	x
COc1ccc(S(=O)(=O)Nc2ccc3c(c2)C(=O)N([C@H](C)CO)C[C@H](C)[C@H](CN(C)S(=O)(=O)c2cccs2)OCCCC[C@H](C)O3)cc1	u	x
COc1cccc(CN2CC3(CN(C(C)=O)C3)c3c(n(C)c4cc(OC)ccc34)[C@@H]2CO)c1	4.2	-4.0
CCS(=O)(=O)N1CC2(C1)[C@@H](c1ccccc1)[C@H](CO)N2Cc1ccc(F)cc1	11.4	15.7

4 of these compounds in a different format.
Values in the order: Vaccinia stage | Vaccinia stage Venus
COc1ccc(S(=O)(=O)Nc2ccc3c(c2)C(=O)N([C@H](C)CO)C[C@H](C)[C@H](CN(C)S(=O)(=O)c2cccs2)OCCCC[C@H](C)O3)cc1
→ u | x
CCS(=O)(=O)N1CC2(C1)[C@@H](c1ccccc1)[C@H](CO)N2Cc1ccc(F)cc1
→ 11.4 | 15.7
COc1cccc(CN2[C@H](CO)[C@H]3c4ccccc4N(C(=O)CC(F)(F)F)C[C@H]32)c1
→ u | x
C[C@H](O)C#Cc1ccc([C@@H]2[C@@H](CO)N3CCCCN(C(=O)c4ccc(F)cc4)C[C@@H]23)cc1
→ -3.2 | -3.0
